# E coli growth: E. coli growth inhibition, primary screen, OD600; Escherichia coli growth, 23 h; active compounds read low; OD600 absorbance (concentration not given with the values); 330,000 tested, 0.21% active; AID 1053175, 2014;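 active means OD600 absorbance below the run mean of sample wells minus 3.6 SD, in any replicate, cut at about 0.56 in these data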;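 further: stock transfer was 300 nL into about 60 µL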
# LANA-H2A inh: blockers of LANA interaction with H2A/H2B – biochemical, FP readout, HTS, primary screen; Protein LANA1 (Human herpesvirus 8 type P (isolate GK18)), Q9QR71; cell-free LANA-H2A/H2B peptide, fluorescence polarization; inhibition, % (concentration not given with the values); 320,000 tested, 0.6% active; in the data active means inhibition mostly above about 10%, no sharp cut-off; inactive means mostly below about 6.7%;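 further: stock transfer was 7.5 nL into about 10 µL; 0% = median of vehicle wells and 100% = median of positive control wells; one replicate is shown; the record names a cut of 25% in any replicate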
# Target sequence (Q9QR71 whole entry, looked up): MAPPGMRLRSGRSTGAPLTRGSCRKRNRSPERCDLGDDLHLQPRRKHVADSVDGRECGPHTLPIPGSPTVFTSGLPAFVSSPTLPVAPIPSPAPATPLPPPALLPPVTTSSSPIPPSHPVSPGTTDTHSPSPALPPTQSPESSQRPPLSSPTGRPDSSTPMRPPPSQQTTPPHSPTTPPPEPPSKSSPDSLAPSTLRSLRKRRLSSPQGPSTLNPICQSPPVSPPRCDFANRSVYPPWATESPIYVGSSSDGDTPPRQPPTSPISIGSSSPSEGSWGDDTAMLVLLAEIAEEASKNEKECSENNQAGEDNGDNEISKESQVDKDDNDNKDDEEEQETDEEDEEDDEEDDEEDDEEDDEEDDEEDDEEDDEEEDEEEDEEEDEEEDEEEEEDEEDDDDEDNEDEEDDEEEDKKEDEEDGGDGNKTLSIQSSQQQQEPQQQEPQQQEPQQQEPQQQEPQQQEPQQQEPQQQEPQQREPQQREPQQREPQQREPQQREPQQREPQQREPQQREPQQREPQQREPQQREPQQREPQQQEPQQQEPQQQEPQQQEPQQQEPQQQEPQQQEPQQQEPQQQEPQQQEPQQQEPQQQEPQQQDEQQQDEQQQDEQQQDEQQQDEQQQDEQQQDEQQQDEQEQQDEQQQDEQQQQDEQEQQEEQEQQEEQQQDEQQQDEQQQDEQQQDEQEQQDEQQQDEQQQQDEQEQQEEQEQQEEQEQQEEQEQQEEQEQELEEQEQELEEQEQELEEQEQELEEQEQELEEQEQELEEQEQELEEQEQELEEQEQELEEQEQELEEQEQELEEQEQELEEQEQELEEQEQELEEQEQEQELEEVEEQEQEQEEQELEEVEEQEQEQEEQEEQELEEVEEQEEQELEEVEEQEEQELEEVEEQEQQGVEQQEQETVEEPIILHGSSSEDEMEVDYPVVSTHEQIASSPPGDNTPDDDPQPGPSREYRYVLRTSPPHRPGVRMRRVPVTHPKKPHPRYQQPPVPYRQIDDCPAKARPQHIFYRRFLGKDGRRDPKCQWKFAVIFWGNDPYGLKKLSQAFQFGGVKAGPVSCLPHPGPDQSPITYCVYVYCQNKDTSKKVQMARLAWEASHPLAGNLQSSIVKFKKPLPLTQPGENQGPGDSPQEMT
# Bfl-1 A1 inh: caspase 3/7 activation in MEF A1-2A-BIM cells, primary screen, A1 inhibitor project, cell-based, luminescence, HTS. Caspase-Glo 3/7 luminescence, 3 h; percent of clofoctol response, vehicle zero. caspase activation, % (concentration not given with the values). 330,000 tested, 0.066% active. AID 2462, 2010;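 active means over half of replicate activation scores above 10%, or exactly half above 10 with the replicate mean above 10; inconclusive means replicate mean below 10 yet half the replicates above 10; inactive means over half of replicates below 10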;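 further: wells of about 30 µL received 50 nL stock; many hits fall short of the cut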
# HNF4A DNA FP: change in binding of human HNF4A to DNA, primary screen, biochemical, fluorescence polarization, FITC-DNA; 360,000 tested, 0.3% active; AID 1224865, 2016; activity change, % at 10 µM; 1 h; in the data active means activity change above about 30%, passing the limit was not always enough;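 further: controls were the assay level and a saturating level of protein; the project sought stronger binding though the title names inhibitors; some compounds called inactive have numbers as strong as hits; positive values seem to mean higher polarization but the record does not say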
# Beta2AR agonist: beta2AR agonists driving receptor internalization, primary screen, cell-based, FAP fluorogen, flow cytometry; Beta-2 adrenergic receptor (Homo sapiens), P07550; Am2.2-beta2AR cells; reference of the scale not given here; response, % (no concentration beside the values); 340,000 tested, 0.43% active; AID 504454, 2011;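 active means response above a set limit, near 3 SD of response in nonfluorescent compounds, cut at about 42% in these data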;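 further: stock transfer was 100 nL into about 11 µL; a reference agonist was the positive control; negative values mostly stem from fluorescent compounds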
# UCH37 DUB inh: inhibitors of human UCH37 deubiquitinase, primary screen, biochemical, Ub-AMC cleavage, fluorescence. Ubiquitin carboxyl-terminal hydrolase isozyme L5 (Homo sapiens), Q9Y5K5. purified proteasome/UCH37. inhibition, % (concentration not given with the values). 330,000 tested, 0.33% active;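 active means mean of two replicates above 20%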;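 further: 0% = compound-free wells with enzyme and 100% = wells lacking proteasome; stock transfer was 100 nL into about 20 µL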
#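 Material: human UCH37 enzyme supplied as purified proteasome complex. Measure: % inhibition of Ub-AMC cleavage fluorescence. Medium: pH 7.4 Tris-HCl (50 mM) with ovalbumin, ATP-MgCl2, DTT. Times: 30 min preincubation with enzyme, 25 min cleavage at room temperature. Detection: AMC fluorescence intensity at 355/460 nm.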
# Vif TR-FRET: inhibitors of Vif binding to APOBEC3G peptide, primary screen, biochemical, TR-FRET, GST-Vif 1-94, biotin-A3G peptide, dose response retest (AID 1117319) | inhibition, %; hits with a dose series show IC50 in µM | TR-FRET GST-Vif / biotin-A3G peptide binding; higher % means a stronger effect; test concentration not given here; strong numbers were not always called active | 260,000 tested, 0.57% active;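 active means above the screen mean plus three standard deviations and confirmed in dose response; inconclusive means results disagree or hit not tested in dose response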;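 further: Vif residues 1-94 fused to GST binding biotinylated APOBEC3G peptide 110-148; 0% = full assay without inhibitor and 100% = GST in place of GST-Vif; retest series ran down from 100 µM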
# An asterisk follows results filed as active; ? = inconclusive; . = not tested or not shown; & = joins results of further samples.
SMILES,E coli growth,LANA-H2A inh,Bfl-1 A1 inh,HNF4A DNA FP,Beta2AR agonist,UCH37 DUB inh,Vif TR-FRET
O=C(NCc1cc(C(F)(F)F)ccc1Cl)c1cccc2c1C(=O)c1ccc(N3CCC(Cc4ccccc4)CC3)cc1S2(=O)=O,0.7,0.1,0.4,-219,-6,-1.4,.
OCCC1CN(Cc2cccn2-c2nccs2)CCN1Cc1ccc(F)c(F)c1 (stereo not drawn),0.68,3.9,-0.3,0.7,4,2.3,5%
COc1ccc(CCC(=O)Nc2ccc(OC)c(S(=O)(=O)N3CCCCC3)c2)cc1OC,0.67,0.4,0.0,6.3,9,4.4,.
COC(=O)c1oc2ccc(Br)cc2c1-n1cccc1,0.69,8.6,0.5,1.6,5,5.3,-4%
O=C(NC1CCCCC1)Nn1c(-c2ccccc2)nc2ccccc2c1=O,0.68,.,0.8,4.0,0,-1.3,.
Cc1c(NC(=O)c2c(F)cccc2F)c(=O)n(-c2ccccc2)n1C,0.77,3.2,-1.4,0.2,-1,4.2,9%
OCCC1CN(Cc2ccc(Oc3ncccn3)cc2)CCN1C1CCCC1 (stereo not drawn),0.67,1.0,0.8,2.9,-8,0.8,23%
N#CCSc1nnc(COc2cccc3ccccc23)n1-c1ccccc1,0.72,2.0,-0.9,0.1,1,8.3,?
CCOC(=O)C1CCN(C(=O)COc2ccc(S(=O)(=O)N3CCOCC3)cc2)CC1,0.68,3.6,1.2,-4.3,15,2.7,.
COc1ccc(OC)c(C2Nc3c(Cl)ccc(C(=O)O)c3C3C=CCC32)c1 (stereo not drawn),0.72,-2.0,0.9,2.6,-3,0.3,-12%
O=C(O)C1CCN(S(=O)(=O)c2ccc(N3CCOCC3)c([N+](=O)[O-])c2)CC1,0.67,-6.1,0.9,-2.9,-10,4.8,-9%
COc1ccc(C(=O)NN(C)c2nc(-c3ccccc3)cc(C)c2S(C)(=O)=O)cc1,0.78,0.3,-0.5,0.3,-4,-5.6,2%
OC(COc1ccccc1)CN(Cc1ccccc1)CC(O)COc1ccccc1 (stereo not drawn),0.65,1.7,-0.1,4.7,-10,-0.5,.
CCN(CC)C(=O)Cn1nnc(-c2ccc(S(C)(=O)=O)cc2)n1,0.69,1.5,1.2,-0.3,-2,1.4,.
CNC(=S)N/N=C/c1ccc(-c2cccc(C(=O)O)c2)o1,.,-0.3,-5.5,0.1,0,.,14%

# Compound profiles, as listed above:
# CCN(CC)C(=O)Cn1nnc(-c2ccc(S(C)(=O)=O)cc2)n1 reads E coli growth: 0.69; LANA-H2A inh: 1.5; Bfl-1 A1 inh: 1.2; HNF4A DNA FP: -0.3; Beta2AR agonist: -2; UCH37 DUB inh: 1.4; Vif TR-FRET: .
# O=C(NC1CCCCC1)Nn1c(-c2ccccc2)nc2ccccc2c1=O reads E coli growth: 0.68; LANA-H2A inh: .; Bfl-1 A1 inh: 0.8; HNF4A DNA FP: 4.0; Beta2AR agonist: 0; UCH37 DUB inh: -1.3; Vif TR-FRET: .

# Going on with the list.
SMILES,E coli growth,LANA-H2A inh,Bfl-1 A1 inh,HNF4A DNA FP,Beta2AR agonist,UCH37 DUB inh,Vif TR-FRET
OCCCc1nc2n(n1)C(c1ccccc1Cl)C=C(c1cccs1)N2 (stereo not drawn),0.7,0.9,1.5,22,-3,-285,3%
O=C(CCCCCC(=O)N(CCO)CCO)N(CCO)CCO,0.73,0.0,1.0,1.0,-1,1.1,15%
COC(=O)CN1C(=O)N/C(=C/c2ccc(C)o2)C1=O,0.69,2.9,0.8,-0.8,10,11,19%
CC1CCN(S(=O)(=O)c2ccc(NC(=S)NC(=O)c3ccc(Cl)cc3)cc2)CC1,0.77,1.9,-0.6,0.2,-4,2.0,11%
Cc1csc(NC(=O)C2CSC3(C)CCC(=O)N23)n1 (stereo not drawn),0.7,1.7,0.0,2.5,-1,4.4,.
Cc1c(/C=N/N=C2\CCC3C4CCc5cc(O)ccc5C4CCC23C)cnn1C (stereo not drawn),.,3.9,-0.1,0.5,11,.,-4%
COC(=O)c1sc(SC)c(S(=O)(=O)C(C)C)c1N,0.64,0.4,-1.5,5.7,0,10.0,.
O=C(CSc1nc2nn(-c3ccccc3)c(=O)c-2c2n1CCCCC2)Nc1ccccc1[N+](=O)[O-],0.68,.,.,1.1,-2,5.9,3%
COc1ccc(C2(c3ccc(OC(C)=O)cc3OC(C)=O)CC(c3ccccc3)NC(=S)N2)cc1 (stereo not drawn),.,-3.1,0.1,-5.8,-496,.,10%
Cc1cc(C)c2ccc(NN)nc2c1O,0.69,-4.9,-1.8,0.5,4,6.4,5%
COc1cc(C2OC(c3cc(OC)c(OC)c(OC)c3)C(C)C2C)cc(OC)c1OC (stereo not drawn),0.75,1.1,0.6,-1.8,3,4.0,1%
O=C(Nc1sc2c(c1C(=O)c1ccccc1)CCCC2)c1cccnc1,0.71,-0.2,-0.2,-0.7,-21,7.6,5%
O=C(NC1CCCCC1)C(c1ccc(F)cc1)N(CCc1ccccc1)C(=O)CN1C(=O)c2ccccc2S1(=O)=O (stereo not drawn),0.66,3.8,18*,4.9,-1,3.8,.
Cc1ccc(-c2nc(N/N=C/c3cccc([N+](=O)[O-])c3)c3ccccc3n2)cc1,.,5.2,-5.5,4.8,9,.,-3%
CCOC(=O)Cn1c(=NC(=O)CN2C(=O)CCC2=O)sc2cc(S(N)(=O)=O)ccc21,0.7,2.0,0.2,2.9,6,0.5,-24%
CCOc1ccc2c(c1)s/c(=N\S(=O)(=O)c1ccc(OC)cc1)n2C(F)F,.,-4.1,0.1,-5.6,1,.,-3%
CCCCOC(=O)Nc1ccc2c(C)cc(=O)oc2c1,0.71,2.4,-11,0.9,-5,-142,1%
COc1ccc(Cl)cc1NC(=O)CN(C)C(=O)c1ccc(N2CCCCCC2)c([N+](=O)[O-])c1,0.68,0.0,-0.4,-2.0,-7,1.1,.
Cn1c(O)c(C2=c3ccccc3=NC2=O)sc1=Nc1ccc(Cl)cc1,0.69,-0.2,0.1,12,.,8.9,8%
Nc1ccn(C2CC(O)C(CO)O2)c(=O)n1 (stereo not drawn),0.71&0.63,-0.6,-0.4,2.4,-9,0.3,.
Cc1ccc(NC(=O)C2CSC3(C)CCC(=O)N23)cc1S(=O)(=O)N1CCOCC1 (stereo not drawn),0.66,1.7,1.3,-2.2,-8,0.5,-2%
Cc1ccc(OCCOCCOc2cccc3cccnc23)c(Br)c1,0.61,-1.4,0.0,1.0,0,-0.3,-12%
C=CCc1cc(/C=C2/NC(=S)NC2=O)cc(OC)c1O,0.69,-3.2,0.2,10,-10,.,4%
CCN(C[C@H]1N[C@@](C)(C(=O)OC)[C@H]2C(=O)N(C)C(=O)[C@@H]12)C(=O)c1ccc(C)cc1,0.67,67*,0.3,0.0,0,1.3,.
O=S(=O)(c1ccc(SCc2ccc(Cl)cc2)nc1)N1CCCC1,0.71,4.1,0.4,1.7,8,5.4,-16%
O/N=C1\CC2(Cc3nonc31)OCCO2,.,-2.7,-0.8,-1.1,-10,.,2%
CCOc1ccc(CN2CCNC(=O)C2CC(=O)NCCC2=CCCCC2)cc1 (stereo not drawn),0.73,4.2,0.6,2.4,2,13,-2%
CCN(Cc1cc(=O)n2ccsc2n1)c1cccc2ccccc12,0.69,-2.0,0.7,-6.8,13,1.4,.
O=C(Cc1ccccc1)c1nnc(-c2ccccc2)o1,0.71,3.2,-0.5,0.3,-6,1.5,4%
O=S(=O)(c1ccc(F)cc1)N1CCCN(Cc2c(F)cccc2F)CC1,0.67,1.7,0.2,-2.8,-2,3.5,-8%

# Sorted by molar mass (highest first): 3 of the compounds above.
SMILES,E coli growth,LANA-H2A inh,Bfl-1 A1 inh,HNF4A DNA FP,Beta2AR agonist,UCH37 DUB inh,Vif TR-FRET
CCOc1ccc(CN2CCNC(=O)C2CC(=O)NCCC2=CCCCC2)cc1 (stereo not drawn),0.73,4.2,0.6,2.4,2,13,-2%
O=C(Cc1ccccc1)c1nnc(-c2ccccc2)o1,0.71,3.2,-0.5,0.3,-6,1.5,4%
Nc1ccn(C2CC(O)C(CO)O2)c(=O)n1 (stereo not drawn),0.71&0.63,-0.6,-0.4,2.4,-9,0.3,.

# Later entries.
SMILES,E coli growth,LANA-H2A inh,Bfl-1 A1 inh,HNF4A DNA FP,Beta2AR agonist,UCH37 DUB inh,Vif TR-FRET
O=C(CNC(=O)c1ccccc1)OCCOc1cccc(Cl)c1,0.69,2.0,0.4,0.2,20,4.8,4%
C=CCN(c1ccccc1OC)S(=O)(=O)c1cccc(C(=O)OC2CCOC2=O)c1 (stereo not drawn),0.71,.,.,-1.2,1,0.9,-4%
CN1C(=O)c2cccc3c(N(C)C)ccc(c23)C1=O,0.68,5.1,1.3,8.7,2,4.7,-2%
COc1ccc(CNC(=O)C2CCN(C(=O)c3csc(Nc4ccc(C)cc4)n3)CC2)cc1,0.7,-6.5,-0.1,3.2,8,1.0,.
O=C(CN1CCN(Cc2ccccc2F)C1=O)NCc1cccnc1,0.73,8.1,0.8,-1.6,1,7.6,-1%
Cc1nn(Cc2ccccc2)c(C)c1NC(=O)c1cc(-c2ccc3c(c2)OCO3)on1,0.72,-2.7,0.5,-2.5,5,5.0,73%
Cc1nc(CS(=O)(=O)c2ccc(Cl)cc2)cc(Sc2ccccc2Cl)n1,0.73,-0.1,0.3,4.2,6,4.0,-4%
O=C(CSc1ccccn1)Nc1ccc2c(c1)C(=O)c1ccccc1C2=O,0.69,2.8,-1.9,-16,-2,8.0,19%
Cc1ccc2oc3c(SCc4nc5ccccc5[nH]4)nc(C)nc3c2c1,0.71,-1.3,-1.3,3.8,0,3.8,.
Cc1ccc(CNC(=S)NCc2ccncc2)cc1,0.69,3.8,-0.7,3.6,-1,4.3,-1%
C(=Cc1c[nH]c2ccccc12)c1ccc2ccccc2n1,0.67,.,.,37*,-289,-42,-9%
CC(C)(C)NC(=O)c1ccc2nsnc2c1,0.66,3.1,0.6,1.4,3,4.4,-4%
CC1=C(C(=O)N2CCOCC2)C(c2ccc(Br)cc2)NC(=S)N1c1ccccc1 (stereo not drawn),0.69,-2.6,-0.6,-1.4,6,0.7,-7%
Cc1c(C(=S)Nc2ccccc2)cnn1-c1ccccc1,0.66,-1.4,-0.5,-0.7,-8,3.1,5%
COc1ccc(N2CC(C(=O)N[C@@H](C)C(=O)NCCc3ccccc3)CC2=O)cc1 (stereo partly drawn),0.71,6.0,-0.1,-3.9,-2,-1.3,.
O=C(NCc1nc2ccccc2[nH]1)C1=C[C@H](C2CC2)C[C@H](OCCCCO)O1,.,2.5,0.8,-0.1,-7,-1.1,-5%
COc1ccc(N(CC(=O)NCc2ccco2)C(=O)CCC(=O)Nc2nccs2)c(OC)c1,0.65,-3.4,0.6,0.1,1,0.9,.
CC(C)(C)c1nnc(NC(=O)CN2C(=O)C3C4C=CC(C4)C3C2=O)s1 (stereo not drawn),0.69,1.6,-0.9,0.1,-1,3.7,0%
COc1ccc(CC(O)COS(N)(=O)=O)cc1 (stereo not drawn),0.67,-1.1,0.9,-1.8,4,1.2,.
CCCC(=O)N1CCc2cc(-c3nc(N)sc3C)ccc21,0.64,-1.7,-2.7,2.1,-11,-1.2,31%
O=C(Nc1cccc(Cl)c1)N1CCN(C/C=C/c2ccccc2)CC1,0.63,-4.0,-1.1,-0.7,-13,4.5,7%
O=C(O)c1c[nH]c2ccc(F)cc2c1=O,.,7.9,0.9,-1.7,2,.,.
CCOC(=O)c1sc2nc(NC(=O)C3CC3)sc2c1C,0.71,-0.1,-0.8,6.8,-13,-0.2,-15%
